# FGF22 binding: shifts melting point of recombinant human FGF22; calls only at 9.99 µM; recombinant FGF22 thermal shift, SYPRO orange fluorescence; percent of sucrose octasulfate shift, DMSO zero; 1.5% of 340,000 active; AID 651658;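 active means melting point raised past a set limit in the mean and every replicate; three in four hits are not shown here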
# Target sequence (Q9HCT0 whole entry, looked up): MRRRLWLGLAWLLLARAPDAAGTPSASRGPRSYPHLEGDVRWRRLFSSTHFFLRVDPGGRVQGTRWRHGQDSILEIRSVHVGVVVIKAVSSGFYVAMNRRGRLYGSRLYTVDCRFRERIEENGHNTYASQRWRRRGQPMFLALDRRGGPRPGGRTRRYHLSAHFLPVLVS
# HNF4A DNA FP: change in binding of human HNF4 alpha to DNA | HNF4a-FITC DNA binding, fluorescence polarization, 1 h | activity change, % at 10 µM | 0.3% of 360,000 active | AID 1224865; in the data active means activity change above about 30%, passing the limit was not always enough;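 further: controls were the assay level and a saturating level of protein; the project sought stronger binding though the title names inhibitors; some compounds called inactive have numbers as strong as hits; positive values seem to mean higher polarization but the record does not say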
# Target sequence (P41235 whole entry, looked up): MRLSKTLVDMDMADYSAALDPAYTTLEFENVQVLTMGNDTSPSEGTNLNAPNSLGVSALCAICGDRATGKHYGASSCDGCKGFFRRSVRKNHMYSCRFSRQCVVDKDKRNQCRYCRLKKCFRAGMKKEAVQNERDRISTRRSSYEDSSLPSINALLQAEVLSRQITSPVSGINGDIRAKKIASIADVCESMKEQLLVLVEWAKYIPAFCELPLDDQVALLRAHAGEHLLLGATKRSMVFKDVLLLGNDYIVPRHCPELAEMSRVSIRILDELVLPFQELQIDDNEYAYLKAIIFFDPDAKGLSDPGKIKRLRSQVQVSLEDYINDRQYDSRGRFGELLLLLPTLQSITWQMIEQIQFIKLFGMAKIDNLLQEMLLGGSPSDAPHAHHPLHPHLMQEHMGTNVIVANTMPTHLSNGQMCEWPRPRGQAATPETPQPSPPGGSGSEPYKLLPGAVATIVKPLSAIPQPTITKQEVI
# * marks the source's active call; other numbers are inactive results; i = inactive; · = not tested or not shown. Some of the compounds tested (hit frequency here may not be typical).
# Preview:
mol,FGF22 binding,HNF4A DNA FP
COCCNC(=O)c1cc2c(c(-c3cccc(-c4cc5ccccc5o4)c3)n1)[C@@H](CCO)N(S(=O)C(C)(C)C)C2 (stereo partly specified),i,20
NC(c1cccc(F)c1)c1nc(-c2ccc(Cl)cc2)cs1 (stereo unspecified),i,4.6

# All compounds of this part, from the start:
mol,FGF22 binding,HNF4A DNA FP
COCCNC(=O)c1cc2c(c(-c3cccc(-c4cc5ccccc5o4)c3)n1)[C@@H](CCO)N(S(=O)C(C)(C)C)C2 (stereo partly specified),i,20
NC(c1cccc(F)c1)c1nc(-c2ccc(Cl)cc2)cs1 (stereo unspecified),i,4.6
CC(C)(C)Cc1c(-c2ccccc2)nc2ccc(Cl)cn12,i,3.5
Cc1ccc(NC(=O)C2(C)CCN2C(=O)C2CCCCC2)cc1C (stereo unspecified),i,-2.2
COc1ccc2c(c1)CCC1(C)CC(=O)C=C21 (stereo unspecified),i,5.5
COC(=O)N1CCCCC1c1cc(C(=O)NCc2ccc(F)cc2)no1 (stereo unspecified),i,-1.7
Cc1cc2nc(-c3ccc(F)cc3)c(Cc3cccc(Cl)c3)n2c(C)c1Br,i,6.6
CCCCCNC(=O)c1ccc(NC(=O)CC2SC(N3CCCC3)=NC2=O)cc1 (stereo unspecified),i,0.3
NS(=O)(=O)c1cc(Br)c2c(c1)S(=O)(=O)NCN2,i,0.7
COCCNc1ncnc2c1ncn2[C@H]1CN(Cc2ccccc2)C[C@@H](CO)O1,i,2.4
COC(=O)[C@@]1(Cc2ccc(F)cc2)[C@H]2c3cc(C(=O)N4CCCC4)n(C[C@H](O)CO)c3C[C@H]2CN1C(=O)c1ccccc1,i,3.8
O=C(NC(c1ccc(Cl)cc1)c1ccsc1)C1CCN(Cc2cccc(C(F)(F)F)c2)CC1 (stereo unspecified),i,-4.5
Cc1cccc(NC(=O)CCS(=O)(=O)c2ccc3nc(C)sc3c2)c1,i,1.1
COCCCN1C(=O)C(CC(=O)NC2CCCCC2)CC(C(=O)N(C(C)C)C(C)C)=C1C (stereo unspecified),i,1.1
COc1ccccc1CNC(=O)Nc1nc(C(N)CCc2ccccc2)cs1 (stereo unspecified),i,4.2
COc1ccc(S(=O)(=O)Nc2ccc3c(c2)C(=O)N([C@H](C)CO)C[C@H](C)[C@@H](CN(C)C(=O)Nc2ccc(F)cc2)OCCCC[C@H](C)O3)cc1,i,-6.7
COC(=O)C(C(=O)OC)C1CCCCC1NS(=O)(=O)c1ccc(C)cc1 (stereo unspecified),i,3.6
O=C(NCc1cccnc1)c1cc(C2CCCN(S(=O)(=O)c3cccs3)C2)on1 (stereo unspecified),i,0.3
c1ccc(CN(Cc2ccccc2)C(c2ccnc3ccccc23)c2nnnn2-c2ccc3c(c2)OCCO3)cc1 (stereo unspecified),i,-3.2
O=C(NCc1ccccc1CN1CCCC1)c1ccc(S(=O)(=O)Nc2ccccc2)cc1,i,-5.7
O=C1C=C(CCc2ccccc2)CCC1,i,-2.6
COC(=O)C[C@@H]1C[C@H]2c3cc(NC(=O)Nc4ccccc4F)ccc3O[C@H]2[C@H](CO)O1,i,-0.2
N#Cc1ccc(-c2nc3ccc(Br)cn3c2Cc2ccccc2)cc1,i,-0.9
CCCCCCn1cc(CN(C)C2CN(Cc3cn(CCCCCC)nn3)S(=O)(=O)C2)nn1 (stereo unspecified),i,-1.6
CC1(c2nc3ccccc3[nH]2)CCCC2=Nc3ccccc3CN21 (stereo unspecified),i,0.0
CCCC[C@@H]1Cc2[nH][nH]c(=O)c2[C@H](c2ccc3ccccc3c2)O1,i,1.2
C[C@H](c1ccccc1)N1C[C@H](COCc2ccccc2)Oc2cc(N3CCC[C@H]3CO)ccc2S1(=O)=O,i,5.6
Cc1cc(F)ccc1-c1cc(C(=O)NCc2cccc(C(F)(F)F)c2)[nH]n1,i,-0.7
Cc1cccc(C)c1NC(=O)C(c1ccnc2ccccc12)N1CCN(C)CC1 (stereo unspecified),i,-4.4
C[C@@H]1CN([C@@H](C)CO)C(=O)CCCn2nncc2CO[C@@H]1CN(C)C(=O)C1CCCCC1,i,-3.2
O=S1(=O)CC(N2CCC(Cc3ccccc3)CC2)CN1Cc1ccccc1 (stereo unspecified),i,-2.2
Cc1nc2nc(C(F)(F)F)[nH]c2nc1C,i,2.2
O=S1(=O)CC(N2CCCC2)CN1Cc1cn(Cc2cccc(C(F)(F)F)c2)nn1 (stereo unspecified),i,-2.4
CCOC(=O)[C@]12CCCC=C1N(Cc1ccccc1)C(=O)[C@H](CC(=O)NCCc1ccccc1OC)C2,i,2.9
CC(C)(C)OC(=O)N1CCc2onc(-c3ccc(N)cc3)c2C1=O,i,-3.3
COc1ccc(S(=O)(=O)N2CCCCC2c2cc(C(=O)Nc3ccc(OC)cc3C)no2)cc1 (stereo unspecified),i,2.9
Cc1ccc(F)c(S(=O)(=O)NC(=O)C2(C)CCN2C(=O)Cc2ccccc2Cl)c1 (stereo unspecified),i,1.7
COc1ccc(C(=O)C[C@@H]2OC[C@H](C(C)C)N2S(=O)(=O)c2ccc(C)cc2)cc1OC,i,6.3
Cc1ccc(S(=O)(=O)Nc2ccccc2NS(=O)(=O)c2ccc(C)cc2)cc1,i,2.3
O=C(NC1CCCCC1)c1ccc(-c2cn[nH]c2)c2ccoc12,i,-3.1
CSCCC(C(=O)Nc1c(C)cccc1C)N1CCN(C/C=C/c2ccccc2)CC1 (stereo unspecified),i,-1.6
O=[N+]([O-])c1ccc2c(c1)C(N1CCN(CCO)CC1)Cc1ccc(F)cc1S2 (stereo unspecified),i,3.1
CCc1nc2c(OCCOc3ccccc3)cccn2c1N(C=O)Cc1ccc(OC)cc1,i,3.6
Cc1ccc(Cc2c(-c3cccc(Cl)c3)nc3ccc(Br)cn23)cc1,i,11
CC1(Cc2cc(Cl)ccc2C(F)(F)F)C(=O)Nc2cc(-c3ccccc3Cl)ccc21 (stereo unspecified),i,-0.2
COc1ccc(-c2ccc(C(=O)Nc3cc(OC)c(OC)c(OC)c3)c3occc23)c(C)c1,i,-0.2
NC(Cc1ccc(Cl)cc1)c1csc(Nc2ccc(C(=O)NCCCO)cn2)n1 (stereo unspecified),i,-0.3
CCOc1ccc(-n2c(=S)sc3c(=O)[nH]c(SCC(=O)NC4CCCCC4)nc32)cc1,·,-4.4
Cc1cnc(C2OCCO2)c2cccc(N)c12,i,-1.3
CCC(=O)N1CCC1(C)C(=O)NS(=O)(=O)c1cccc(C#N)c1 (stereo unspecified),i,2.6
COc1ccccc1Cc1c(C2CCCCC2)nc2ccc(Cl)cn12,i,17
O=C1[C@H]2[C@@H]3CCN1CCC[C@@H]2C=C[C@@H]3c1ccc(Br)cc1,i,2.8
CC(=O)c1cccc(-c2ccnc3c2CC(C(=O)NCCc2ccccc2)O3)c1 (stereo unspecified),i,-0.1
COc1cccc(S(=O)(=O)N(C)C[C@H]2Oc3cc(Br)ccc3S(=O)(=O)N([C@@H](C)CO)C[C@H]2C)c1,i,-3.9
CCc1nc2c(OCC(=O)C(C)(C)C)cccn2c1N(C)C(=O)c1ccco1,i,2.4
Clc1ccccc1Nc1nc(NCC2CC2)nc2ccsc12,i,1.2

# Full records, quoted from the list.
# O=C1[C@H]2[C@@H]3CCN1CCC[C@@H]2C=C[C@@H]3c1ccc(Br)cc1 is entered as FGF22 binding = i; HNF4A DNA FP = 2.8
# CC1(Cc2cc(Cl)ccc2C(F)(F)F)C(=O)Nc2cc(-c3ccccc3Cl)ccc21 (stereo unspecified) is entered as FGF22 binding = i; HNF4A DNA FP = -0.2

# Later entries
mol,FGF22 binding,HNF4A DNA FP
CCc1nc2c(OCCn3cccc3)cccn2c1N(C=O)Cc1ccc(OC)cc1,i,6.8
CC(C)(C)C(c1nc2ccccc2[nH]1)n1c(-c2ccco2)nc2ccccc21 (stereo unspecified),i,-0.6
O=C(Nc1c(-c2ccccc2)[nH][nH]c1=O)c1ccco1,i,-4.2
COc1ccccc1C(=O)NCC[N+](C)(C)C,i,2.5
CCCCC[C@H](C)N1C[C@H](COCc2ccccc2)Oc2cc(N3CC[C@H](O)C3)ccc2S1(=O)=O,i,2.3
CCCCN1C(=O)C(CC(=O)NCc2ccco2)CC(C(=O)N2CCCCCC2)=C1C (stereo unspecified),i,1.4
O=C(NC1CCCC1)C(c1ccc(F)cc1)N1CCC(O)(c2ccc(Cl)cc2)CC1 (stereo unspecified),i,1.2
CCCCn1nnnc1C(c1ccccc1)N1CCN(c2ncc(C(F)(F)F)cc2Cl)CC1 (stereo unspecified),i,-2.9
CC(C)OC(=O)N(C)C[C@@H]1OCc2cnnn2CCCC(=O)N([C@@H](C)CO)C[C@H]1C,i,0.1
CCOC(=O)C1=CCN(S(=O)(=O)c2ccccc2F)C1c1ccc(Cl)c(Cl)c1 (stereo unspecified),i,0.8
Cc1ccc2ccc(C(Nc3ccccc3)c3ccccc3)c(O)c2n1 (stereo unspecified),i,-14
CCc1cc(=O)oc2cc(OC(C)C(=O)N3CC[C@@]4(O)CCCC[C@H]4C3)ccc12 (stereo partly specified),i,12
C[C@@H]1CN([C@@H](C)CO)C(=O)CCCn2nncc2CO[C@@H]1CN(C)C(=O)c1ccc2ccn(C)c2c1,i,1.7
COCCN(C(=O)COC(=O)c1ccc2c(c1)OCO2)c1c(N)n(Cc2ccccc2)c(=O)[nH]c1=O,i,-3.8
COC(=O)[C@@]12C[C@@H](CC(=O)NCc3cccc(C(F)(F)F)c3)C(=O)N(Cc3ccc4c(c3)OCO4)C1=CCC(C)(C)C2,i,3.6
CN(N=Nc1nc[nH]c1C(N)=O)C1CCCCC1,i,-1.9
CCCOc1ccc(F)cc1-c1cc(C(=O)NCc2cc(OC)cc(OC)c2)[nH]n1,i,0.0
COc1cc(NC(=O)Nc2nnc([C@H]3C[C@H](O)[C@@H](CO)O3)s2)cc(OC)c1,i,-0.3
C[C@@H](NC(=O)c1[nH]cnc1C(=O)Nc1ccccc1F)c1ccccc1,i,0.8
CC1=C(C(=O)N2CCCCCC2)CC(CC(=O)NC2CCCCC2)C(=O)N1CCC1=CCCCC1 (stereo unspecified),i,1.8
CC(=O)c1c(C)[nH]c(C(=O)OCC(=O)N2CCN(c3ccccc3)CC2)c1C,i,1.4
CC1=C(C(=O)N2CCCCCC2)CC(CC(=O)NCCN2CCOCC2)C(=O)N1CCC1=CCCCC1 (stereo unspecified),i,3.6
COC(=O)c1ccc2nc(-c3ccc(C)cc3)c(Cc3ccc(C)cc3)n2c1,i,-0.2
CCN(CC)c1ncnc2c1ncn2[C@H]1CN(Cc2ccncc2)C[C@@H](CO)O1,i,0.0
COCCCNC(=O)C[C@@H]1C[C@@]2(C(=O)OC)CCCCC=C2N(CCC2=CCCCC2)C1=O,i,1.6
CCCCN1CC(N2CCN(C3CCN(C)CC3)CC2)CS1(=O)=O (stereo unspecified),i,3.0
CC(C)(C)NC(=O)C(CCc1ccccc1)n1c(=O)c(-c2cc3ccccc3[nH]2)nc2ccccc21 (stereo unspecified),i,15
c1ccc(-c2nnc3oc(-c4cccs4)nn23)cc1,i,-0.3
COCCNC(=O)C1(C)Cc2c(-c3ccc(N(C)C)cc3)ccnc2O1 (stereo unspecified),i,-0.3
O=C(C1=NOC2(C1)C(=O)Nc1ccccc12)N1CCOCC1 (stereo unspecified),i,-5.0
CC(=O)NC(c1ccc(F)c(F)c1)c1nc(-c2cccc(C(C)C)c2)cs1 (stereo unspecified),i,-4.2
CC1(C(=O)NS(=O)(=O)c2cccc(OC(F)F)c2)CCN1C(=O)c1cccc(F)c1 (stereo unspecified),i,-4.6
CCn1c(C)cc(C(=O)CSc2nnc(C3CC3)n2C2CC2)c1C,i,-2.9
COc1cc(N(C(C)=O)c2ccc(O)c(C(=O)O)c2)c2ncccc2c1,i,-4.7
COc1ccc([C@H]2N[C@]3(CCCN(Cc4ccc(C(F)(F)F)cc4)C3=O)[C@H]3C(=O)N(Cc4ccccc4)C(=O)[C@@H]23)cc1,i,-7.3
O=S1(=O)CC(N2CCN(Cc3ccccc3F)CC2)CN1Cc1cn(Cc2ccc(C(F)(F)F)cc2)nn1 (stereo unspecified),i,-2.2
COC(=O)[C@@]12C[C@@H](CC(=O)N3CCCCC3)C(=O)N(CCc3ccc(OC)c(OC)c3)C1=CCC(C)(C)C2,i,-0.6
CCOC(=O)C1=C[C@@H](CC)N(S(=O)(=O)c2ccccc2)[C@H]1c1ccccc1,i,-3.1
COc1ccccc1Cc1c(-c2ccccc2)nc2cc(C)c(Br)c(C)n12,i,6.8
COc1ccc(C(O)c2ncc(-c3cccc4ccccc34)[nH]2)cc1F (stereo unspecified),i,-1.0
CN(C)Cc1csc(NC(=O)Nc2ccccc2-c2ccccc2)n1,i,0.9
COc1ccccc1-c1cc(NC(C)=O)c2ncc(-c3cccc(C(C)=O)c3)n2c1,i,2.3
COc1ccc(-c2cnc3c(NC(C)=O)cc(-c4cccc(NS(C)(=O)=O)c4)cn23)cc1OC,i,1.0
Cc1nc2c(OCCOc3ccc(F)cc3)cccn2c1N(C)C(=O)CCC1CCCC1,i,7.1
CCc1cccc(NC(=O)COC(=O)c2c(C)nn(-c3ccccc3)c2C)c1,i,3.0
O=C(NC(=S)Nc1c(Cl)cc(Cl)cc1Cl)c1ccccc1,i,-0.6
C[C@@H]1CCCCO[C@H](CN(C)S(=O)(=O)c2cccs2)[C@@H](C)CN([C@H](C)CO)C(=O)c2cc(NC(=O)Nc3ccc4c(c3)OCO4)ccc2O1,i,0.4

# From PubChem BioAssay
